AID504770 = growth inhibitors of E. coli YBA685 in a screen for V. cholerae RctB (chromosome II replication) inhibitors. 130,000 compounds, 0.27% hits. z-score (concentration not given with the values). AID 504770. E. coli YBA685 rctB-dependent plasmid, OD600 growth, 3 h; hits give low values;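 active means z-score under -2 on both plates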;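 further: wells of about 30 µL received 100 nL stock; score is relative to mean and SD of the test wells; the first replicate is given; strong numbers were not always called active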
CapD inh = inhibitors of Bacillus anthracis CapD enzyme. purified CapD enzyme, fluorescence intensity read-out; hits give low values; some hits fall short of the stated cut. z-score (no concentration beside the values). 140,000 compounds, 0.23% hits. AID 492967;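 active means z-score under -4 in either of two replicates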;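 further: stock transfer was 100 nL into about 40 µL; score is relative to mean and spread of the plate; one replicate is shown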
Active calls of the source: *; · = not tested or not shown. An unsorted share of the library; about 0.39% have a hit in one of these screens.

SMILES | AID504770 | CapD inh
CCNC(=O)Nc1ccccc1Sc1ncc(C(F)(F)F)cc1Cl | · | -0.28
Cc1cc(CNC(=O)Nc2ccc3c(c2)OCO3)c(C)n1-c1ccc(F)cc1 | -0.15 | 0.51
CCn1nc(C(=O)NC23CC4CC(CC(C4)C2)C3)c2ccccc2c1=O | 1.2 | ·
O=C1CC(N2CCN(Cc3ccccc3)CC2)C(=O)N1 (configuration not stated) | -0.05 | 0.085
Cc1c(C)c(/C=N/O)c(C)c(C)c1/C=N/O | 1.1 | 0.83
Cc1ccc(O)c(C(=O)CSc2nnc(-c3ccccn3)c(-c3ccccn3)n2)c1 | 0 | ·
COc1cccc(-c2nnc(-c3ccccc3)o2)c1 | -1.3 | 2.7
Cn1nc(C(F)(F)F)c(-c2ccccc2)c1NC(=O)c1ccco1 | 0.9 | 0.98
O=C(OCC(=O)N1CCCC1)c1ccccc1O | -0.05 | 0.41
CC1CCCCC1NC(=O)c1ccc2c(=O)n(CCCN3CCCC3=O)c(=S)[nH]c2c1 (configuration not stated) | -0.1 | 52
COc1ccc(CN(C)C(=O)CN(C)S(=O)(=O)c2ccc3c(c2)OCCO3)cc1 | 0.65 | ·
CCC(=O)NCc1nc2ccccc2n1CC(C)C | 0.85 | 0.1
CCN(CC)C(=O)COc1cc(C)c(Cl)c(C)c1 | -0.8 | -0.085
Cc1ccc(CS(=O)Cc2ccc(C(=O)NCCc3ccccc3)o2)cc1 (configuration not stated) | -0.2 | 0.16
CCCc1nc2sc3c(N4CCCC4)ncnc3c2c2c1CCCC2 | -0.35 | -0.12
O=C(CCCO)NC1Cc2ccccc2C1 | 2.6 | -0.29
O=C1Cc2ccccc2N1c1c(Cl)cccc1Cl | 1.1 | -0.26
Cc1ccc2c(c1)-c1nc(SCc3c(F)cccc3Cl)ncc1CS2 | · | -0.23
O=C(NCCC1CCCCC1)N1CCN(c2ccccc2)CC1 | 0.15 | -0.045
C=C(C)c1cccc(C(C)(C)NC(=O)N2CC(C)OC(C)C2)c1 (configuration not stated) | -0.45 | -0.76
O=C(CCC1=NS(=O)(=O)c2cc(Br)cnc2N1)N1CCOCC1 | -0.4 | 11
O=C(CCCn1c(=O)c2ccccc2n(Cc2ccc(F)cc2)c1=O)NCc1ccc(F)cc1 | 0.55 | 0.12
Cc1cc(C)n2c(SCC(=O)N3CCc4ccccc43)nnc2n1 | -0.3 | ·
CC(C)=NNCOc1ccc(OCc2ccccc2)cc1 | 1.5 | ·
OC1(c2cccc(C(F)(F)F)c2)CCN(c2ccc(-c3ccccc3)nn2)CC1 | 0.3 | ·
COc1ccc2cc(/C(C)=N/OC(=O)Nc3ccc(OC(F)(F)F)cc3)ccc2c1 | · | 0.98
Cc1ccc2c(c1)C1CN(C)CCC1N2S(=O)(=O)c1nc2cc(C)nc(C)n2n1 (configuration not stated) | · | -0.54
C=CCn1c(SCC(=O)NC(=O)NC)nnc1-c1ccc(Cl)cc1Cl | 0.15 | ·
COC(=O)c1ccc2c(c1)nc(C)n2CCO | 0.3 | -0.03
COc1ccc(Nc2c3c(nc4ccc(NC(=O)c5ccc(Br)o5)cc24)CCCC3)cc1OC | 0.1 | -1.1
c1ccc(-c2nnc(SCCN3CCOCC3)o2)cc1 | -0.2 | ·
COCCn1c(SCC(=O)Nc2ccccc2Cl)nc2cc(C(=O)OC)ccc2c1=O | -0.75 | 1.4
COC(=O)c1cc(-c2ccc(Cl)cc2)n(-c2cc(Cl)ccc2Cl)n1 | · | -0.005
CCCc1ccc(OCC(O)CN2CCN(C)CC2)cc1 (configuration not stated) | -0.05 | -0.13
COc1ccc(C2CC(=O)C3=C(C2)Nc2ccc4ccccc4c2C3c2ccc3c(c2)OCO3)cc1 (configuration not stated) | · | 1.5
NNC(=O)CC1=Nn2c(nnc2-c2cccs2)SC1 | -0.1 | -0.48
CSc1ncc(C(=O)Nc2cccnc2)c(C(F)(F)F)n1 | 0.45 | -0.43
O=C(CSc1nc2ccccc2s1)Nc1ccc(S(=O)(=O)Nc2nccs2)cc1 | · | -0.025
COc1ccc(/C=C2\SC(=S)N(CCC(=O)N3c4ccccc4Sc4ccccc43)C2=O)cc1 | · | 0.01
Cc1c(NCc2ccccc2)cccc1C(=O)O | -0.55 | 3.2
O=C1CC(N2CCC(c3nc4ccccc4[nH]3)CC2)C(=O)N1 (configuration not stated) | -0.8 | ·
CC1N=C(c2ccc(Cl)cc2)NO1 (configuration not stated) | -0.55 | 5.8
COCc1nc2ccccc2c2c1C(=O)N(CCCn1ccnc1)C2=O | · | -0.34
CC12CCC(=O)N1C(C(=O)N1CCN(c3ccccc3)CC1)CS2 (configuration not stated) | 1.9 | ·
CC(C)(C)NC(=O)C1CC(=O)N(c2ccccc2)C1 (configuration not stated) | 1.5 | ·
N#C/C(=C\c1cnc2ccccc2n1)S(=O)(=O)c1ccccc1 | -0.35 | -0.075
O=S(=O)(c1ccc(N2CCCCC2)cc1)C(F)(F)F | 1.4 | -0.08
CCOC(=O)c1c(O)c2c([nH]c1=O)CCCC2 | 0.2 | 2.8
CN=C(C)/C(C(=O)OC)=C(/O)c1cc(C(F)(F)F)cc(C(F)(F)F)c1 | -0.25 | -0.11
COc1cc(C(=O)O)ccc1OCc1c(C)noc1C | 0.05 | ·

The final 2 compounds of the section above open the next one.
SMILES | AID504770 | CapD inh
CN=C(C)/C(C(=O)OC)=C(/O)c1cc(C(F)(F)F)cc(C(F)(F)F)c1 | -0.25 | -0.11
COc1cc(C(=O)O)ccc1OCc1c(C)noc1C | 0.05 | ·
Cc1nn(-c2cccc(Cl)c2)c(N)c1-c1cccc(C(F)(F)F)c1 | · | 0.1
C=CCNC(=O)c1cnn2c(C(F)(F)F)cc(-c3cccs3)nc12 | -1.1 | 0.15
C(=Nc1ccc2ccccc2c1)c1ccncc1 | -0.8 | -0.065
CCOC(=O)C/C(C)=N/c1ncn(-c2ccc(OC)cc2)c1C(=O)c1ccccc1 | -0.7 | 5.6
O=c1[nH][nH]c2nnc(-c3ccccc3)c(-c3ccccc3)c12 | 0.1 | 0.39
COc1ccc2oc(=O)c(C(=O)NCCO)cc2c1 | 0.2 | ·
CC(=O)Nc1ccc(S(=O)(=O)NCC2CC3CCC2C3)cc1 (configuration not stated) | -0.3 | -0.35
Cn1cnnc1SCC(=O)N1c2ccccc2C(C)(c2ccccc2)CC1(C)C (configuration not stated) | · | 0.33
CCOc1cc(C(F)(F)F)c(C(=O)NCc2ccc(Cl)cc2)cn1 | -1 | 0.23
COc1ccc2oc(=O)c(C(=O)N3CCN(C/C=C/c4ccccc4)CC3)cc2c1 | · | 8.8

Continued; it opens with the six that closed the last part.
SMILES | AID504770 | CapD inh
O=c1[nH][nH]c2nnc(-c3ccccc3)c(-c3ccccc3)c12 | 0.1 | 0.39
COc1ccc2oc(=O)c(C(=O)NCCO)cc2c1 | 0.2 | ·
CC(=O)Nc1ccc(S(=O)(=O)NCC2CC3CCC2C3)cc1 (configuration not stated) | -0.3 | -0.35
Cn1cnnc1SCC(=O)N1c2ccccc2C(C)(c2ccccc2)CC1(C)C (configuration not stated) | · | 0.33
CCOc1cc(C(F)(F)F)c(C(=O)NCc2ccc(Cl)cc2)cn1 | -1 | 0.23
COc1ccc2oc(=O)c(C(=O)N3CCN(C/C=C/c4ccccc4)CC3)cc2c1 | · | 8.8
O=C(Cn1ncc2c([nH]c3ccccc32)c1=O)NC1CCCC1 | 0.45 | 0.75
Brc1ccc(OCCSc2nnc(NC3CC3)s2)cc1 | -0.3 | ·
CCOC(=O)c1ccc2nc(NC(=O)CSc3nc(C)cc(=O)[nH]3)sc2c1 | -0.6 | 0.83
CNC(=O)CC12CC3CC(CC(C3)C1)C2 | -0.4 | 0.18
O=C(Cc1ccccc1)N1CCN(c2ccc(N3CCCCC3)nn2)CC1 | -0.95 | ·
CC(C)(C)NC(=O)c1cccc2c1C(=O)N(C1CCCCC1)C2 | 1.9 | -0.57
CCNC(=O)N1C2CCC(C2)C1C(=O)OCC (configuration not stated) | -0.5 | ·
CCOC(=O)c1c(N)c(C#N)c2n1CCCCC2 | 1.9 | -1.1
Cc1cccc(-n2c(C)nc3cc(C(=O)N4CCC5(CC4)OCCO5)ccc32)c1 | 0 | 0.75
CNS(=O)(=O)Cc1ccc([N+](=O)[O-])cc1 | · | 0.51
C=CCn1c(SCc2c(C)noc2C)nc2scc(-c3ccc(F)cc3)c2c1=O | · | 0.2
Cn1[nH]c(CSc2ccccc2)cc1=O | -1.1 | 0.26
CC1CCCCC1NC(=O)c1cc2ccccc2o1 (configuration not stated) | · | -0.21
CCCCSC1=C(C#N)C(=O)NCS1 | -0.35 | -1.8
COc1ccc(C2=NN(C(C)=O)C(c3ccccc3OCc3ccccc3)O2)cc1 (configuration not stated) | · | 0.64
O=[N+]([O-])c1ccc2nc(N3CCCCC3)nc(-c3ccccc3)c2c1 | · | 0
O=C(Cc1ncc(C(F)(F)F)cc1Cl)NC1CCCC1 | 0 | 0.36
CCOC(=O)C1=C(N)Oc2c(c(=O)oc3ccccc23)C1c1cccc(Cl)c1 (configuration not stated) | · | 0.87
CCOc1ccc(N2C(=O)CC3(CC(C(=O)OCc4ccccc4)=NN3)C2=O)cc1 (configuration not stated) | -0.6 | ·
Cc1ccc(NC(=O)NC(=O)c2c(-c3snnc3C)noc2C)cc1 | 0.95 | -0.26
Cc1oc(-c2ccc(C(=O)NCCN3CCOCC3)cc2)nc1CSc1ccccc1 | 1.1 | 2.6
O=C(CSc1nc2ccccc2c(=O)n1CC1CCCO1)N1CCCCCC1 (configuration not stated) | · | -0.1
Cc1ccc(S(=O)(=O)NC(=O)N(C2CC2)C2CCN(C)CC2)cc1 | · | -0.67
O=C(CCC1CCCCC1)Nc1ncn[nH]1 | -0.4 | ·
c1ccc(CN2CCCN(c3nc4c(c(NCCN5CCOCC5)n3)CCCC4)CC2)cc1 | 0.5 | ·
O=C(NCCc1ccccn1)C(F)(F)C1(F)OC(F)(F)C(F)(F)C1(F)F (configuration not stated) | -0.7 | ·
Oc1ccc2ccccc2c1CN1CCN(Cc2ccc3c(c2)OCO3)CC1 | -1.1 | 33
Cc1cccc(N2C(N)=C(C#N)C(c3cc(C)ccc3C)C3=C2CCCC3=O)c1 (configuration not stated) | 1.8 | -0.51
CCOC(=O)Cn1nnnc1CN(Cc1cc2c(C)ccc(C)c2[nH]c1=O)C1CCCCC1 | 0 | ·
CCOC(=O)c1sc2nc(C(F)(F)F)nn2c1C | -2.5* | 0.47
Cc1ccc(S)cc1C | 0.45 | ·
COc1ccccc1C(OC(=O)c1cccs1)C(=O)NCc1ccco1 (configuration not stated) | -0.6 | ·
CC(C)n1c(O)c(N=NC(=O)c2cccc(S(=O)(=O)N3CCCC3)c2)c2ccccc21 | 0.55 | ·
Cc1cc(Cl)cc2c1N=C(c1ccc(Br)cc1)NN=C2c1ccccc1 | · | -0.33
CN1CCN(c2ccc(NC(=O)COc3ccc(Br)cc3)cc2)CC1 | -1.2 | 0.02
O=C(COc1ccc(/C=N/NS(=O)(=O)c2ccccc2)cc1)N1CCOCC1 | 1.8 | -0.17
O=C(NCCCN1CCN(Cc2ccccc2)CC1)c1cn2cc(C(F)(F)F)cc(Cl)c2n1 | -0.45 | 0.8
CCOC(=O)c1c(-c2ccccc2)nc2ccccn12 | -0.55 | 0.72
O=C(NO)c1ccccc1 | -1.1 | -0.39
COc1cc(NC(=O)Cn2nc([N+](=O)[O-])c(Br)c2C)c(OC)cc1Cl | · | 0.43

3 of these compounds in a different format:
Values in the order – AID504770 | CapD inh
COc1ccccc1C(OC(=O)c1cccs1)C(=O)NCc1ccco1 (configuration not stated)
    -0.6 | ·
CC(C)n1c(O)c(N=NC(=O)c2cccc(S(=O)(=O)N3CCCC3)c2)c2ccccc21
    0.55 | ·
Cc1cc(Cl)cc2c1N=C(c1ccc(Br)cc1)NN=C2c1ccccc1
    · | -0.33

Next part
SMILES | AID504770 | CapD inh
CC(C)c1cc(C(C)C)c(S(=O)(=O)N2CCN(CCO)CC2)c(C(C)C)c1 | -0.55 | -0.31
CC/C(=N\NS(C)(=O)=O)c1ccccc1 | 1.7 | -0.27
Cc1ccccc1S(=O)(=O)Cc1ccc(C(=O)NCCN2CCCC2)o1 | 0.75 | -0.22
Cc1cccc(CC(=O)n2nc(C)cc2C)c1 | -0.6 | -1.7
N=c1oc2ccccc2cc1-c1nnc2n1CCCCC2 | -0.45 | 16
CCCNC(=O)c1ccc2nc(N3CCCCC3)sc2c1 | -0.6 | -0.14
Cc1ccc(NC(=O)CN(C)Cn2nc(-c3ccco3)oc2=S)cc1 | -1.2 | ·
COCCn1c(SCC(=O)c2ccc(CNC(C)=O)cc2)nc2ccccc21 | -0.7 | ·
CCN1CCCC1CNCc1ccccc1 (configuration not stated) | -0.5 | 0.28
O=C1CSC(c2cccc(C(F)(F)F)c2)N1c1ccc(Br)cc1 (configuration not stated) | · | -0.32
Cc1ccc(NC(=O)c2cc(S(=O)(=O)NCCC3=CCCCC3)ccc2F)cc1 | · | -0.51
O=C(Nc1ccc(F)cc1)/C(=C/c1cccc([N+](=O)[O-])c1)NC(=O)c1ccccc1Br | · | 0.27
CC(CN1CCCC1)C(=O)NN (configuration not stated) | -0.35 | ·
O=C(CCc1nc2ccccc2c(=O)[nH]1)Nc1nccs1 | 0.25 | ·
Cc1cc(=O)oc2c1ccc1occ(Nc3ccccc3)c12 | · | -0.11
Cc1cccc(C(=O)OCC(=O)N2CC(C)CC(C)C2)c1C (configuration not stated) | 1.9 | -0.22
N#CCC(=O)Nc1cccc2ccccc12 | 0 | 1.5
CC1(C)CC2CC(C)(CN2C(=O)COC(=O)c2cncc(Br)c2)C1 (configuration not stated) | 2 | ·
CCc1ccc(-c2nc(CN3CCC(C(=O)NCc4ccco4)CC3)c(C)o2)cc1 | -0.8 | -0.3

Among those listed so far, these have a tert-butyl group:
SMILES | AID504770 | CapD inh
CC(C)(C)NC(=O)C1CC(=O)N(c2ccccc2)C1 (configuration not stated) | 1.5 | ·
CC(C)(C)NC(=O)c1cccc2c1C(=O)N(C1CCCCC1)C2 | 1.9 | -0.57

From PubChem BioAssay
